MT1-MMP reporter = inhibitors of MT1-MMP promoter transcription, cell-based, luciferase reporter, luminescence (AID 618) | MT1-MMP promoter luciferase reporter cells, luminescence | calls from a first round at 10 µM; hits with a dose series show EC50 in µM | actives 0.62% (n = 87,000);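 active = over half of the reporter light lost at 10 µM or EC50 under 50 µM; inactive = the rest and hits that failed the dose series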;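 also: actives suppress MT1-MMP promoter-driven transcription so potencies describe inhibitors; HT1080 fibrosarcoma cells; overnight exposure; toxic or luciferase-blocking compounds were not removed from the actives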
Hsc70 = small molecules displacing fluorescent ligand from Hsc70 – biochemical, fluorescence polarization, primary screen (AID 568); Hsc70 fluorescence polarization, probe displacement; higher % means a stronger effect; strong numbers were not always called active; displacement, % at 20 µM; hits with a dose series show IC50 in µM; 83,000 tested, under 10 active;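 active = displacement above 50% without optical interference and an IC50 on retest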;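 also: ATPase domain with a fluorescein-tagged ATP probe; 0% = vehicle and 100% = excess ADP; read after one hour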
WNV protease inh = WNV NS2B-NS3 proteinase inhibition; AID 577; z-score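 (tested at a level between 10 and 100 µM)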; P06935; WNV NS2B-NS3 protease, fluorogenic substrate Ex360/Em465; stronger effect = lower value; actives 0.18% (n = 65,000);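 active = z-score at -3 or under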;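 also: score is relative to mean and spread of the compound wells of a plate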
Target sequence (P06935 1371-1501 limits assumed): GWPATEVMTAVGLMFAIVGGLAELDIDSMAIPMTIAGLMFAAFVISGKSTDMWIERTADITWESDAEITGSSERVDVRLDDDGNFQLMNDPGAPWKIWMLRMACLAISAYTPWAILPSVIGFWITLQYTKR
Target sequence (P06935 1502-1679 limits assumed): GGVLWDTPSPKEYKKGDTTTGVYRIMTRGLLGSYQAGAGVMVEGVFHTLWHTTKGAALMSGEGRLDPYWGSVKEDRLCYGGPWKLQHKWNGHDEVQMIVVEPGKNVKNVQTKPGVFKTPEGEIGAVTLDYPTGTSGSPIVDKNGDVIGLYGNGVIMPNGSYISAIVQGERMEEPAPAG
Active calls of the source: *; i = inactive; x = not tested or not shown. Some of the compounds tested, so the mix of outcomes need not match the whole.

Below each compound – WNV protease inh | MT1-MMP reporter | Hsc70
> O=C(Nc1nc2ccc(S(=O)(=O)N3CCCCC3)cc2s1)c1ccncc1
  -0.7 | i | -1.5%
> O=C(CSc1ccc2c(c1)OCCO2)NCc1ccco1
  0.25 | i | 0.8%
> O=c1oc(-c2cc3ccccc3o2)nc2sc3c(c12)CCCC3
  -0.98 | i | -7.7%
> O=C(Nc1nc(-c2ccncc2)cs1)c1ccco1
  -0.71 | i | -0.6%
> CCOc1ccc(C(=O)Nc2cc(C)on2)cc1
  1.9 | i | -1.1%
> O=C(Oc1ccc2ccccc2c1)c1ccco1
  0.24 | i | 2.2%
> CCS(=O)(=O)CCSc1nc2ccccc2o1
  -0.75 | i | -1.7%
> Nc1nonc1C(=O)NCCNCc1c(OCc2ccccc2F)ccc2ccccc12
  x | i | 0.2%
> COCCn1c(SCC(=O)Nc2nnc(C)s2)nnc1-c1c[nH]c2ccccc12
  0.1 | i | -9.1%
> COc1cc2c(=O)n(-c3ccc(C)cc3)c(=O)n(CC(=O)c3ccc4c(c3)OCO4)c2cc1OC
  0.57 | i | -4.3%

Compound profiles, from the list above. Values in the order: WNV protease inh, MT1-MMP reporter, Hsc70
Profile of COc1cc2c(=O)n(-c3ccc(C)cc3)c(=O)n(CC(=O)c3ccc4c(c3)OCO4)c2cc1OC = 0.57, i, -4.3%
Profile of O=C(Nc1nc(-c2ccncc2)cs1)c1ccco1 = -0.71, i, -0.6%
Profile of COCCn1c(SCC(=O)Nc2nnc(C)s2)nnc1-c1c[nH]c2ccccc12 = 0.1, i, -9.1%

Remaining list, next part
Below each compound – WNV protease inh | MT1-MMP reporter | Hsc70
> COc1ccc(C)cc1NC(=O)C1CC(=O)N(Cc2ccco2)C1 (stereo unspecified)
  -0.57 | i | 6.6%
> CC(C)c1ccc(NC(=O)CCNS(=O)(=O)c2cccc3nonc23)cc1
  0.66 | i | -4.1%
> Cc1nnc(SCC(=O)NCc2ccc3c(c2)OCO3)s1
  -0.53 | i | -12%
> Cc1c(Cc2ccccc2)c(=O)oc2c(C)c(OCc3nn[nH]n3)ccc12
  1.9 | i | 1.8%
> CC(CN(C)Cc1ccccc1)OC(=O)C1COc2ccccc2O1 (stereo unspecified)
  0.87 | i | 5.4%
> O=C(CSc1n[nH]c(-c2ccccc2Br)n1)NC(=O)NCc1ccco1
  -0.77 | i | 2.2%
> COc1cc(C(=O)Nc2cnc(NC(=O)C(C)C)cc2C)cc(OC)c1OC
  0.2 | i | 2.0%
> CCOC(=O)CCC(=O)NCc1ccc2[nH]c(C)cc2c1
  -1.6 | i | -2.0%
> O=S(=O)(Nc1nnc(-c2ccccc2)s1)c1ccc(Cl)cc1
  -0.36 | i | 4.6%
> CCOc1ccc(-n2c(Cc3cc(=O)[nH]c(=O)[nH]3)nnc2SC(C)C)cc1
  1.8 | i | -5.3%
> COc1ccc(Cn2c(CCC(=O)Nc3ccccc3)nc3cccnc32)cc1
  x | i | 3.5%
> O=C(CN1C(=O)c2ccccc2C1=O)N1CCN(c2ccccc2)CC1
  -1.2 | i | 2.0%
> C(=N\n1cnnc1)/c1ccc(N2CCOCC2)s1
  -0.14 | i | -0.3%
> COCc1nc(-c2ccc(-c3ccc(OC)cc3)nc2OC)no1
  0.33 | i | -2.9%
> Cc1nc2ccc(NC3=NCCCCC3)cc2s1
  -0.38 | i | 5.8%
> CC1(C)Oc2ccc(C(=O)N3CCc4ccccc43)cc2N(CC(=O)N2CCCC2)C1=O
  1.2 | i | 5.8%
> CCN(CC)S(=O)(=O)c1cccc(-c2nnc(SC(C)C#N)n2Cc2ccccc2)c1 (stereo unspecified)
  1.7 | i | 1.2%
> CN(CC(=O)O)S(=O)(=O)c1ccc(F)cc1
  x | i | 0.4%
> Cc1ccc(C2C(=O)N(C3CCC(C)CC3)CC(=O)N2C2CC2)cc1 (stereo unspecified)
  0.94 | i | -5.4%
> Cc1ccnc2nc(C(=O)N3CCN(S(=O)(=O)c4ccccc4)CC3)nn12
  -0.05 | i | 9.2%
> O=C(C1CCC1)N1CCc2cc(S(=O)(=O)Nc3ccc4c(c3)OCO4)ccc21
  0.14 | i | 12%
> O=C(CCCC(=O)OCC1CCCO1)OCC1CCCO1 (stereo unspecified)
  -1.4 | i | -1.4%
> O=C(Nc1ccccc1C(=O)NCCCn1ccnc1)c1ccc(Cl)cc1Cl
  x | i | 2.3%
> CCOc1ccc(NC(=O)C2CCCN(C(=O)NCc3ccccc3)C2)cc1 (stereo unspecified)
  x | i | 2.5%
> O=C(CCNC(=O)Cn1ccc2ccccc2c1=O)NCCCN1CCN(c2ccccc2F)CC1
  1.8 | i | 1.9%
> O=C(CN1CCCCC1)N1c2ccccc2Sc2ccc(C(F)(F)F)cc21
  x | i | 3.7%
> CC(=O)Nc1cc(-c2nn(CC(=O)N3CCCCC3)c(=O)c3ccccc23)ccc1N1CCOCC1
  -0.06 | i | 15%
> CC(C)C(c1nnnn1Cc1ccccc1)N1CCc2ccccc2C1 (stereo unspecified)
  0.5 | i | 1.8%
> COc1ccc(Nc2cc(C)nc3nc(C)nn23)cc1Cl
  -1.4 | i | -5.1%
> c1ccc(SCc2nc(-c3cccnc3)no2)cc1
  -0.19 | i | 4.4%
> c1ccc(Cn2nnnc2CN2CCN(Cc3ccc4c(c3)OCO4)CC2)cc1
  0.42 | i | 1.8%
> CCCCN(C)C(=O)C1CCN(Cc2ccc(OCc3ccccc3)cc2)CC1
  x | i | -1.6%
> C=CCN1C(=O)C2(NNc3ccccc3O2)c2ccccc21 (stereo unspecified)
  x | i | -48%
> COc1ccc(C(=O)n2nc(-c3ccc(C)cc3)nc2N)cc1OC
  -0.23 | i | 8.5%
> O=C(CN1CCOCC1)Nc1ncc(Br)cc1Br
  0.06 | i | 0.2%
> C=COCCNC(=O)C1CC(=O)N(c2ccc(C)cc2)C1 (stereo unspecified)
  -0.73 | i | 1.0%
> O=C(NCCN1CCN(c2ccccc2F)CC1)c1cccn2c(=O)c3ccccc3nc12
  1.3 | i | -0.1%
> CC(C)c1ccccc1N1CC(C(=O)O)CC1=O (stereo unspecified)
  -2 | i | 63%
> COC(=O)Cc1c(C)c2ccc(OCC(=O)N3CCOCC3)cc2oc1=O
  -0.03 | i | 4.5%
> COc1ccc(OC)c(S(=O)(=O)Nc2ccc(C(C)=O)cc2)c1
  x | i | 1.2%
> Cc1cc(C)c2c(c1)-c1c(ssc1=S)C(C)(C)N2C(=O)CSc1nncn1C
  -0.48 | i | -1.7%
> COc1ccc(CNC(=O)c2cc(-c3ccco3)on2)cc1
  -1.6 | i | 6.6%
> Cc1ccc(Nc2c(N)c(=O)oc3ccccc23)cc1
  x | i | -6.8%
> COc1cc(CC(=O)Oc2ccc3c(c2)OCO3)cc(OC)c1OC
  -0.63 | i | 1.2%
> CC1(C)CC(N2CN(C3CCCCC3)CC2=O)CC(C)(C)N1
  1.3 | i | 11%
> Cc1ccc(-n2ncc3c(NCc4cccnc4)ncnc32)c(C)c1
  0.81 | i | 1.0%
> O=C(NCCNC(=O)C(F)(F)F)c1ccncc1
  -0.36 | i | 2.9%
> COC(=O)c1sc(NC(=O)C2CCCO2)c(C(=O)OC)c1C (stereo unspecified)
  -0.31 | i | -2.1%
> CCC(C)(C(=O)Nc1ccc2c(c1)OCCO2)N(C(C)=O)c1ccc(C(N)=O)cc1 (stereo unspecified)
  -1.4 | i | 2.2%
> CCOc1ccc2c(=O)c(Oc3ccccc3)c(C)oc2c1
  x | i | -0.3%

Remaining list, next part.
Below each compound – WNV protease inh | MT1-MMP reporter | Hsc70
> O=C(CCN1C(=O)C2C3C=CC(C3)C2C1=O)N1CCN(c2ccccc2Cl)CC1 (stereo unspecified)
  -1.3 | i | -4.3%
> O=C1C(Cl)=C(Nc2ccccc2O)C(=O)N1c1ccccc1
  -1.5 | i | -6.5%
> O=C(c1sc2ccccc2c1Cl)N(Cc1ccccc1Cl)C1CCS(=O)(=O)C1 (stereo unspecified)
  x | i | 8.4%
> CCOc1ccc(CCNC(=O)CCc2nc(-c3ccc(OC)cc3)no2)cc1OCC
  -0.27 | i | -1.9%
> Cc1cccc(-n2ncc3c(N)ncnc32)c1
  0.44 | i | 3.9%
> CC1=C(C(N)=O)C(c2cccc(OCc3ccccc3)c2)n2nnnc2N1 (stereo unspecified)
  -1.1 | i | 1.4%
> Cc1cc(C)nc(N(C#N)CN2C(=O)c3ccccc3C2=O)n1
  -0.15 | i | -3.5%
> Clc1ccc(CCNc2nc3ccccc3s2)cc1
  x | i | 2.1%
> O=C1CC(c2ccco2)CC(O)=C1C=NCCN1CCNCC1 (stereo unspecified)
  0.21 | i | 9.0%
> Cc1ccc(CCNC(=O)c2nnn(-c3cccc(C)c3)c2N)cc1
  -0.91 | i | 3.7%
> CC(=O)CC(=O)Nc1ccn(-c2ccccc2)n1
  x | i | -5.0%
> CCCC(c1nnnn1Cc1cccs1)N1CCN(C2CCCC2)CC1 (stereo unspecified)
  -1.3 | i | 1.2%
> COc1ccc(Cl)cc1N1C(=O)C2CCCN2C1c1ccc(F)cc1 (stereo unspecified)
  -0.25 | i | 6.9%
> Nc1cc(OC(=O)c2cccs2)nn1S(=O)(=O)c1ccc(F)cc1
  -5.3* | i | 0.5%
> COc1cccc(N(CC(=O)NCc2cccnc2)S(C)(=O)=O)c1
  -0.89 | i | 0.9%
> CC1C(=NO)C(C)C(c2ccccc2)NC1c1ccccc1 (stereo unspecified)
  x | i | -1.5%
> CCOC(=O)C1=C(C)N=c2sc(=C(C)C)c(=O)n2C1c1ccc(N(C)C)cc1 (stereo unspecified)
  x | i | -9.3%
> Cc1nc2cc(-n3ccc(=O)cc3)ccc2n1-c1ccccc1
  0.55 | i | 6.8%
> COC(=O)C1=C(C)NC(C)=C(C(=O)OC)C1c1cc2cc(C)ccc2[nH]c1=O
  -0.14 | i | 3.4%
> O=c1c(Cl)c(N2CCCCC2)cnn1-c1nc2ccccc2[nH]1
  x | 0.59µM* | 0.8%

Structures listed so far with a CF3 group (2):
Below each compound – WNV protease inh | MT1-MMP reporter | Hsc70
> O=C(CN1CCCCC1)N1c2ccccc2Sc2ccc(C(F)(F)F)cc21
  x | i | 3.7%
> O=C(NCCNC(=O)C(F)(F)F)c1ccncc1
  -0.36 | i | 2.9%

(list continues)
Below each compound – WNV protease inh | MT1-MMP reporter | Hsc70
> COc1ccc(C(C#N)C2(C)OCCO2)cc1OC (stereo unspecified)
  0.21 | i | -0.1%
> Cn1c(OCc2ccco2)nc2c1c(=O)n(Cc1ccc(Cl)c(Cl)c1)c(=O)n2C
  0.68 | i | 6.3%
> CCn1c2ccccc2c2nc3cc(OC)c(OC)cc3nc21
  -0.73 | i | 6.1%
> CCc1ccc(N2CCCn3c2nc2c3c(=O)n(CCN3CCOCC3)c(=O)n2C)cc1
  -0.82 | i | -4.0%
> COC(=O)c1nn2c(C(F)(F)F)cc(-c3ccc(Br)o3)nc2c1Br
  0.41 | i | -68%
> COc1ccc(C(C#N)N2CCOCC2)cc1 (stereo unspecified)
  x | i | -1.7%
> CCOC(=O)c1[nH]c2ccccc2c1N=CN(C)C
  x | i | 6.3%
> COc1ccccc1-c1cc(C(=O)Nc2cc(C)on2)no1
  0.9 | i | 2.6%
> COC(=O)c1ccc2c(=O)n(CCO)c(=S)[nH]c2c1
  0.07 | i | 5.8%
> Cc1[nH]c2ccccc2c1Cc1nnc(SCCC#N)o1
  x | i | 1.5%
> COc1ccc(S(=O)(=O)NCCCCCC(=O)NCCCN2CCOCC2)cc1
  0.48 | i | 4.8%
> NCCN=C1NS(=O)(=O)c2ccccc21
  x | i | 1.3%
> NC(=O)CS(=O)(=O)c1nc2ccccc2n1CC(=O)N1CCCCC1
  -0.17 | i | 3.7%
> O=c1cc2c(nn1Cc1c(Cl)cccc1Cl)-c1ccccc1CC2
  x | i | 1.3%
> O=C(Oc1ccc(-n2cnnn2)cc1)c1ccco1
  0.27 | i | -2.7%
> COC(=O)c1ccccc1NC(=O)C1CCCN(S(C)(=O)=O)C1 (stereo unspecified)
  -0.18 | i | 2.2%
> OCCN1CCN(Cc2cc(Cl)c3cccnc3c2O)CC1
  x | i | -1.4%
> Cc1cc(-n2nc(C)cc2C)nc(NS(=O)(=O)c2ccccc2)n1
  0.03 | i | -1.0%
> CC(C)(C)c1nnc(NC(=O)CN2C(=O)C3C4C=CC(C4)C3C2=O)s1 (stereo unspecified)
  0.54 | i | 1.1%
> CCN(c1cccc(C(F)(F)F)c1)S(=O)(=O)c1ccc2c(c1)CCN2C(=O)C1CC1
  0.4 | i | -1.1%
> CS(=O)(=O)N(Cc1ccccc1)c1ccc(C(=O)NCc2cccnc2)cc1
  x | i | -3.5%
> O=C1CC(C(=O)Nc2ccccc2)C2(CCCCC2)O1 (stereo unspecified)
  x | i | 0.7%
> CCC(=O)Nc1nnc(CSCc2ccccc2)s1
  -1.1 | i | 2.0%
> CCCCn1nnc(NC(=O)c2sc3cc(Cl)ccc3c2Cl)n1
  1.8 | i | 1.8%
> Cc1cccc(NC(=O)Cn2cc(C(=O)c3ccco3)c3ccccc32)c1
  x | i | 6.0%
> O=C(CSc1nc2ccccc2c2nc3ccccc3n12)NCc1ccco1
  -0.36 | i | -5.3%
> CCOC(=O)c1c(NC(=O)c2cccs2)sc(C(=O)N2CCOCC2)c1C
  -0.34 | i | 0.7%
> c1ccc(Cn2ccnc2SCc2nnc(-c3ccccc3)o2)cc1
  -0.47 | i | 3.9%
> O=C(CSc1nnnn1Cc1ccccc1)NCC(=O)c1ccccc1
  -0.25 | i | 1.2%
> O=C(NCCC1=CCCCC1)C1CCCN(S(=O)(=O)c2cccc3cccnc23)C1 (stereo unspecified)
  -0.25 | i | -2.7%

Bioassay records (PubChem BioAssay)
